Bioassay records (PubChem BioAssay)
Beta2AR agonist – activates human beta-2 adrenergic receptor causing internalization; actives 0.43% (n = 340,000); Am2.2-beta2AR cells, FAP receptor internalization, flow cytometry; reference of the scale not given here; P07550; response, % (concentration not given with the values);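 active means response above a set limit, near 3 SD of response in nonfluorescent compounds, cut at about 42% in these data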;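 further: stock transfer was 100 nL into about 11 µL; a reference agonist was the positive control; negative values mostly stem from fluorescent compounds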
LANA-H2B inh – blocks KSHV LANA binding to histone H2A/H2B. Q9QR71. cell-free LANA-H2A/H2B peptide, fluorescence polarization. inhibition, % (no concentration beside the values). actives 0.6% (n = 320,000). AID 2629; in the data active means inhibition mostly above about 10%, no sharp cut-off; inactive means mostly below about 6.7%;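 further: stock transfer was 7.5 nL into about 10 µL; 0% = median of vehicle wells and 100% = median of positive control wells; one replicate is shown; the record names a cut of 25% in any replicate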
Target sequence (Q9QR71 whole entry, looked up): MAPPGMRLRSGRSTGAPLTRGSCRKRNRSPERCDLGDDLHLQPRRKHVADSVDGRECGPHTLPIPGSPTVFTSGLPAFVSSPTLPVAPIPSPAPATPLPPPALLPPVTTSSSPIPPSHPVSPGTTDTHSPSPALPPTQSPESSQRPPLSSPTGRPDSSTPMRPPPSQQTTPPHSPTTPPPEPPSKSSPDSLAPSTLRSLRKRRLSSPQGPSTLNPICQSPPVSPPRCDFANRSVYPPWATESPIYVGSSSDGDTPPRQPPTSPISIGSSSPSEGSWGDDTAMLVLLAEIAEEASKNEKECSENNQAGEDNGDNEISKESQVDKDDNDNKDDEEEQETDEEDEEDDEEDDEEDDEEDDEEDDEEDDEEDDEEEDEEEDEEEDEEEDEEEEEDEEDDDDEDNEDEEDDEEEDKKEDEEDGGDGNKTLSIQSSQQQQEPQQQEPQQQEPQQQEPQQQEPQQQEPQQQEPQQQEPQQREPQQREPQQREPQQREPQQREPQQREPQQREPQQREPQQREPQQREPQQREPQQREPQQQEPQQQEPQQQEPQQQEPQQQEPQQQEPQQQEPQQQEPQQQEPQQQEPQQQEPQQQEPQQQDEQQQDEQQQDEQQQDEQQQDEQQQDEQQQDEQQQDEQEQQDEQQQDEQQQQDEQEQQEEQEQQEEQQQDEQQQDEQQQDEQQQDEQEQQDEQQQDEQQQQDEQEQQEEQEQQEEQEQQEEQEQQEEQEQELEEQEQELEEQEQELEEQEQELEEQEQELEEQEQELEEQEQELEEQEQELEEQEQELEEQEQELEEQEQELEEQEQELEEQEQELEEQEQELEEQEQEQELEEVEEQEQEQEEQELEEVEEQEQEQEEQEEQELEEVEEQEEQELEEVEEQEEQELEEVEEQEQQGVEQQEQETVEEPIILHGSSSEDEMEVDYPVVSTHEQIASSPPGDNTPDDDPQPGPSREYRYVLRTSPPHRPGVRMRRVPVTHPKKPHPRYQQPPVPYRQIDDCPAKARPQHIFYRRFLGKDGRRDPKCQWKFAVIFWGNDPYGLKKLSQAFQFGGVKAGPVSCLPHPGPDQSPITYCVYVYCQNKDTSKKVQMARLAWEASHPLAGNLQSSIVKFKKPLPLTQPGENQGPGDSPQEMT
Bfl-1 A1 inh – inhibitors of the anti-apoptotic protein A1, read as caspase activation. MEF A1-2A-BIM cells, Caspase-Glo 3/7 luminescence, 3 h; percent of clofoctol response, vehicle zero. caspase activation, % (no concentration beside the values). actives 0.066% (n = 330,000). AID 2462;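 active means over half of replicate activation scores above 10%, or exactly half above 10 with the replicate mean above 10; inconclusive means replicate mean below 10 yet half the replicates above 10; inactive means over half of replicates below 10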;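 further: wells of about 30 µL received 50 nL stock; many hits fall short of the cut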
Calb FLC – affects C. albicans growth with fluconazole; C. albicans CaCi-2 (fluconazole-resistant clinical isolate) + fluconazole, Alamar Blue growth, 48 h; growth inhibition, % (test concentration not listed); actives 0.57% (n = 300,000);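 active means most replicates above 75%; inconclusive means exactly half above 75%; inactive means most below 75%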;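 further: all wells also contain fluconazole at 8 µg/ml as a sub-toxic cotreatment; 0% = median of DMSO wells and 100% = median of geldanamycin control wells; wells of about 8 µL received 7.5 nL stock; the first replicate is given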
RanGTP-Impb inh – inhibitors of RanGTP-importin-beta interaction, primary screen, biochemical, FRET, CFP-Ran, YFP-importin-beta, homogeneous; cell-free CFP-Ran/YFP-importin-beta FRET ratio; inhibition, % (no concentration beside the values); actives 1.1% (n = 300,000);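 active means most replicates above 15%; inconclusive means exactly half above 15%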;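 further: 0% = DMSO wells and 100% = Ran loaded with GDP instead of GTP; wells of about 40 µL received 100 nL stock; the first replicate is given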
UCH37 DUB inh – inhibitors of human deubiquitinating enzyme UCH37. Q9Y5K5. actives 0.33% (n = 330,000). purified proteasome/UCH37, Ub-AMC cleavage fluorescence. inhibition, % (concentration not given with the values);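 active means mean of two replicates above 20%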;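 further: 0% = compound-free wells with enzyme and 100% = wells lacking proteasome; stock transfer was 100 nL into about 20 µL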
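assay system = human UCH37 enzyme supplied as purified proteasome complex | amount = proteasome at 0.15 nM in the dispensed enzyme solution | schedule = 30 min compound-proteasome preincubation then 25 min substrate reaction, room temperature | measured by = fluorescence, ex 355 nm, em 460 nm | benchmarks = no-proteasome wells (full inhibition) and compound-free wells (no inhibition)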
T cruzi repl – T. cruzi replication inhibition. T. cruzi beta-gal in NIH3T3, luminescence, 90 h. inhibition, % (concentration not given with the values). actives 1.4% (n = 300,000);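 active means mean inhibition across valid replicates above about 55%, limit read from the data; inconclusive means mean below that limit but half or more replicates reach it; inactive means mean below it, under half of replicates reach it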;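 further: signal also drops with host cell toxicity which is not excluded here; 0% = plate median of DMSO wells and 100% = zero luminescence signal; higher percent means less beta-gal luminescence so fewer parasites; stock transfer was 50 nL into about 50 µL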
Beta cell apopt – blocks beta cell apoptosis; INS-1E cytokine-induced death, ATP luminescence, 48 h; percent of positive-control rescue, neutral wells zero; protection from apoptosis, % (concentration not given with the values); actives 0.8% (n = 300,000); AID 435005;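 active means all replicates at 75% or more, or half of them and the mean; inconclusive means half reach 75% but not the mean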;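 further: 0% = cytokine-treated negative control wells and 100% = positive control rescue; higher means more ATP so stronger rescue from cytokine killing; wells of about 40 µL received 100 nL stock; the first replicate is given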
The depositor's hits bear a star; u = inconclusive; x = not tested or not shown.

The line under a structure holds: Beta2AR agonist, LANA-H2B inh, Bfl-1 A1 inh, Calb FLC, RanGTP-Impb inh, UCH37 DUB inh, T cruzi repl, Beta cell apopt
COc1ccc(CCN(C(=O)Cn2nnc3ccccc32)C(C(=O)NCC2CCCO2)c2ccncc2)cc1OC (stereo unspecified)
    0, 1.2, 1.0, -4, 2.9, 2.8, -8, -12
Cc1ccccc1C(=O)NC(=S)Nc1ccccc1N1CCCC1
    3, 0.8, -0.7, 3, u, 19, -26, 3
Cc1ccc(-n2ncc(C#N)c2/N=C/N2CCN(C)CC2)cc1
    -4, 1.4, -0.7, -2, -0.8, x, -4, 2
CCC(=O)N1CCc2cc(S(=O)(=O)NCCC(=O)NC3CCCc4ccccc43)ccc21 (stereo unspecified)
    -18, -2.3, 0.3, 1, 1.5, 2.2, -7, -4
COc1ccc(NC(=S)N2CCN(C)CC2)cc1
    3, 9.8, -0.3, 3, -1.1, 3.4, 12, x
CN(C(=O)c1ccc2c(c1)OCCO2)c1c(N)n(Cc2ccccc2)c(=O)[nH]c1=O
    -6, -0.5, -0.5, x, 2.9, 6.0, -12, -2
CC(=O)N(C)c1ccc(NC(=O)N2CCOCC2)cc1
    -1, -0.5, 0.7, 1, 5.0, 2.3, -10, -5
Cc1cccc(NC(=O)CNC(=O)c2ccc3nc[nH]c3c2)c1C
    0, -6.3, -0.3, 0, 2.9, 2.0, -9, -2
O=C(COC(=O)C1=NN(c2ccccc2)C(=O)CC1)Nc1nc(-c2ccc(F)cc2)cs1
    -2, -20, -12, x, x, 1.5, x, -3
CC(C)c1nnc(NC(=O)CCC(=O)N2CCN(c3cccc(Cl)c3)CC2)s1
    1, -1.9, 1.2, -4, 5.3, 1.9, 12, x

Next section:
The line under a structure holds: Beta2AR agonist, LANA-H2B inh, Bfl-1 A1 inh, Calb FLC, RanGTP-Impb inh, UCH37 DUB inh, T cruzi repl, Beta cell apopt
O=C(NCCCN1CCCC1=O)C(=O)NCC1OCCN1S(=O)(=O)c1ccc(Br)cc1 (stereo unspecified)
    0, -2.4, -0.4, -12, 1.4, 1.2, 4, 0
CN(C(=O)COC(=O)c1ccc(S(=O)(=O)N2CCOCC2)cc1)C1CCCCC1
    0, 1.6, 0.1, 0, -1.6, 4.9, -9, -3
CSc1cccc(NC(=O)/C=C/c2cccc(Cl)c2)c1
    9, -2.2, 0.5, 3, 0.4, 2.8, 13, -1
CNS(=O)(=O)c1cccc(C(=O)OCCCOC(=O)c2cccc(S(=O)(=O)NC)c2)c1
    8, 1.1, -1.2, 5, 0.4, 5.5, 5, 0
COc1ccc(NC(=O)C2CCCN(c3nn4c(=O)cc(C)nc4s3)C2)cc1 (stereo unspecified)
    9, -0.9, 0.6, -16, -1.8, 1.2, 3, -3
COc1cc(C(=S)N2CCOCC2)cc(OC)c1O
    2, 2.5, -0.4, 3, 1.9, 4.8, 7, 6
CC(Sc1ccc2c(c1)OCCO2)C(=O)Nc1ccc2c(c1)OCO2 (stereo unspecified)
    0, -2.4, 0.5, 2, -1.6, 7.3, 2, -3
Cc1cccc(OCC(=O)Nc2ccccc2N2CCCCC2)c1C
    -6, 3.7, 0.3, 0, 0.8, 2.0, 41, 6
CC1CCCCC1NC(=O)CCn1c(=O)oc2ccccc21 (stereo unspecified)
    0, -0.4, 0.1, 24, u, 3.4, -10, 2
CCn1c(=O)c(=O)[nH]c2cc(C(=O)NCc3ccc(F)cc3)ccc21
    -4, 0.4, -1.1, 2, -3.9, -6.3, 4, -8

Next section:
The line under a structure holds: Beta2AR agonist, LANA-H2B inh, Bfl-1 A1 inh, Calb FLC, RanGTP-Impb inh, UCH37 DUB inh, T cruzi repl, Beta cell apopt
Nc1nc(Cl)cc(NCCc2ccc(O)cc2)n1
    -3, -3.8, -1.3, 11, 1.2, 2.2, -24, 2
CN(C(=O)COC(=O)C1c2ccccc2Oc2ccccc21)C1CCS(=O)(=O)C1 (stereo unspecified)
    1, -5.3, -0.3, 14, 2.9, 1.3, -6, -9
Cc1nc(C)c(CC(=O)N2CCc3c([nH]c4ccccc34)C2c2ccccn2)s1 (stereo unspecified)
    0, 5.4, 1.1, 13, 0.5, 0.6, -9, 2
O=C(NNC(=O)c1ccc(Br)s1)c1cccc(S(=O)(=O)N2CCCC2)c1
    -8, -1.1, 1.4, x, x, 1.9, x, -2
CN1CCc2c(sc(NC(=O)C3CCCN3S(=O)(=O)c3ccc(Cl)s3)c2C(N)=O)C1 (stereo unspecified)
    -4, -0.2, 1.2, 6, 164*, 3.2, 52, 1
O=S(=O)(c1ccccc1)c1nc(-c2ccco2)oc1N1CCCCCC1
    0, -1.1, -0.1, x, x, 5.4, x, x
CCOc1ccc(-c2cc(N)n(S(=O)(=O)c3cccc4nsnc34)n2)cc1
    -3, 3.0, -0.5, 4, 3.1, 2.3, 6, -2
Cc1ccc(NC(=O)COC(=O)Cn2cnc3c2c(=O)n(C)c(=O)n3C)c(Cl)c1
    0, -0.2, 0.7, -1, 0.2, -0.5, 0, 3
Cc1cc(C)c(S(=O)(=O)N2CCN(C(=O)CN3C(=O)NC4(CCCC4)C3=O)CC2)c(C)c1
    4, 0.5, 0.5, 0, -2.1, 1.4, 0, -1
CCOC(=O)c1c(NC(=O)CSc2nnc(-c3c[nH]c4ccccc34)n2CCOC)sc2c1CCCC2
    10, -1.1, 0.2, -6, -5.6, 2.2, 33, 16

Additional structures follow:
The line under a structure holds: Beta2AR agonist, LANA-H2B inh, Bfl-1 A1 inh, Calb FLC, RanGTP-Impb inh, UCH37 DUB inh, T cruzi repl, Beta cell apopt
CCOC(=O)NC(=O)CSc1nnc(SCCC(=O)O)s1
    7, -0.2, 0.4, 19, 7.7, 5.9, -4, -4
CCOC(=O)N1CCN(S(=O)(=O)c2ccc(C)c(C(=O)NC3CCCCC3)c2)CC1
    -9, -0.6, 0.2, 3, -3.0, -1.2, 5, -5
CCOC(=O)c1cccc(NS(=O)(=O)c2cnc[nH]2)c1
    -1, 0.1, 0.9, -1, -3.1, 1.2, -11, -4
Cc1ccc2nsnc2c1NS(=O)(=O)c1c(C)ccc2nsnc12
    -2, -1.8, -0.1, -7, 5.1, 9.8, -8, -14
COc1ccccc1OCc1cc(C(=O)N(C)CCC2CCCCO2)no1 (stereo unspecified)
    1, 0.6, -0.2, 0, 0.3, 3.8, 8, -6
O=C(O)c1cccc(Oc2ccccc2[N+](=O)[O-])c1
    -2, -0.4, 0.5, -11, -2.9, 6.0, -1, 3
COc1ccc(Nc2ccnc3ccccc23)cc1
    -6, -6.2, -0.3, -6, 5.0, 8.6, 14, 18
CCc1nc(SCC(=O)c2c[nH]c3ccccc23)n[nH]1
    6, -2.3, -0.6, -22, -2.6, 3.9, -5, 0
CC1CN=C(Nc2cccc(S(=O)(=O)N(C)C)c2)S1 (stereo unspecified)
    -6, -6.2, -0.4, -1, 2.3, 3.8, -4, -9
Cc1ccc(-c2[nH]c3cc(C(=O)NCCCn4ccnc4)ccc3c(=O)c2O)cc1
    -5, -2.5, 0.0, 74, -11, -20, -4, 0

(next part)
The line under a structure holds: Beta2AR agonist, LANA-H2B inh, Bfl-1 A1 inh, Calb FLC, RanGTP-Impb inh, UCH37 DUB inh, T cruzi repl, Beta cell apopt
O=C(CCC(=O)Nc1ccc(Cl)cc1Cl)NNC(=O)Nc1ccccc1
    -1, -1.9, -1.1, -18, 1.9, 2.9, -3, -3
CC(C)c1ccc2[nH]c(O)c(N=NC(=S)NCCc3ccccc3)c2c1
    11, -3.2, -0.4, 28, u, 2.7, 41, 18
Cc1ccc(NC(=O)CN2C(=O)c3ccccc3S2(=O)=O)cc1C
    -1, 3.7, -0.3, 1, -0.4, 5.2, -1, -6
CC1=Nc2ccccc2N=C(NC(=O)CN2CCN(c3ccccc3)CC2)C1c1ccccc1 (stereo unspecified)
    3, -3.0, -0.4, 7, 0.6, 0.1, 63*, 1
O=C1NCCc2cc3c(cc21)OCO3
    -4, -3.7, -0.2, 1, 0.3, 0.5, -13, -2
CCC1=NN=C(c2ccc(F)cc2)C(c2c[nH]c3ccccc23)N1O (stereo unspecified)
    -6, 1.9, -0.3, 12, -0.4, 2.4, 6, x
c1ccc(C[C@H]2CNCCN2CC2(c3ccccc3)CC2)cc1
    2, -10, -2.0, -3, 3.9, 0.3, 8, 4
CC(C)CNS(=O)(=O)c1ccc(CCC(=O)N2CCN(c3ccc(F)cc3)CC2)cc1
    -1, -1.2, -0.8, 1, -3.8, -1.0, 11, 7
COC(=O)C(/C=N/OCc1ccc([N+](=O)[O-])cc1)NC(=O)c1ccccc1 (stereo unspecified)
    -4, 6.7, -0.8, -1, 7.1, x, 7, -12
Cc1occc1C(=O)NNC(=S)Nc1ccccc1C(F)(F)F
    1, 1.3, -1.5, -27, 7.3, 0.3, -13, -5

(cont.)
The line under a structure holds: Beta2AR agonist, LANA-H2B inh, Bfl-1 A1 inh, Calb FLC, RanGTP-Impb inh, UCH37 DUB inh, T cruzi repl, Beta cell apopt
O=C(NCc1ccccc1)C1CCN(S(=O)(=O)N2CCOCC2)CC1
    4, 5.4, 0.2, -3, -5.1, 4.3, -7, -9
N#C/C(=C\c1ccc2c(c1)OCO2)C(=O)NCc1ccco1
    2, 1.8, -0.3, -42, -2.0, -54, -38, -2
CCOc1cc(/C=C2\N=C(SC)SC2=O)cc([N+](=O)[O-])c1OC(C)=O
    25, 15, -0.1, -6, 3.7, 8.3, 2, -3
CNS(=O)(=O)c1cc(OC)ccc1OC
    6, -3.2, 1.1, 12, 3.8, 2.8, -2, -1
O=C(N/N=C\c1ccc(F)cc1)c1ccc(Cn2cc(Br)c([N+](=O)[O-])n2)o1
    2, 0.2, -0.7, -7, 5.4, x, 61*, 0
CN(C)CCCN(C(=O)C1COc2ccccc2O1)c1nc2cc3c(cc2s1)OCO3 (stereo unspecified)
    -12, -1.2, -0.5, 3, 8.4, 7.0, 28, -5
Cc1ccc(C2=NN(CCC(=O)NCCCN3CCOCC3)C(=O)CC2)cc1
    3, 9.3, 0.0, -8, -1.2, -0.7, 2, -7
CCc1nnc(NC(=O)CN2C(=O)NC3(CCCC3)C2=O)s1
    -4, -2.7, 0.4, x, x, 1.3, x, -4
O=C(c1cc(-c2ccncc2)nc2ccccc12)N1CCN(c2ccccn2)CC1
    -13, 0.5, 1.0, 27, -0.6, 3.7, 60*, 11
CC(=O)c1ccc(N2CCN(C(=O)c3cc(S(=O)(=O)N4CCOCC4)ccc3C)CC2)cc1
    3, 7.9, 0.5, x, x, 5.2, x, 0
COCCNC(=O)COC(=O)CSCc1nc2ccccc2s1
    10, -0.1, 0.4, -6, u, -1.0, 0, 1
CCCCN1C(=O)NC(NC(C)=O)(C(F)(F)F)C1=O (stereo unspecified)
    3, 5.2, 2.2, -3, -1.7, 1.4, -4, -8
